# From PubChem BioAssay
# Rango release inh: qHTS Assay for Inhibitors of RanGTP induced Rango (Ran-regulated importin-beta cargo) - Importin beta complex dissociation. Snurportin-1 (Homo sapiens) + GTP-binding nuclear protein Ran (Homo sapiens) + Importin …. Biochemical FRET Rango-importin beta, RanGTP-induced dissociation. Potency, µM (highest dose often 46.1 µM), for the others: at the highest dose activity change, negative = inhibition. actives 0.071% (n = 340,000); active means falling FRET ratio curve, often poorly fitted, with flat reads before Ran was added; inconclusive means other falling curves, or compound fluorescence or quenching; inactive means flat or rising ratio curve;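 note: potency is the fitted concentration of half-maximal effect; % of control where 0% means no effect; nearly all actives have a fitted effect of over 45% in size; -100% = wells without RanGTP and RCC1; the record marks most hits as doubtful in a second field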
#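 FRET read at 45 min, room temperature: inhibitors block the CFP/YFP signal rise when RanGTP (0.6 uM Ran, 2 mM GTP, 0.2 uM RCC1) frees Rango (0.1 uM) from importin beta (0.25 uM). Pre-read after 5 min compound exposure flags interference.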
# Rango-impB inh: qHTS Assay for Inhibitors of Rango (Ran-regulated importin-beta cargo) - Importin beta complex formation. Importin subunit beta-1 (Homo sapiens), Q14974. Rango CFP/YFP FRET sensor + importin beta, 45 min. Potency, µM (highest dose often 92.2 µM), inactives show top-dose inhibition of complex formation. actives 0.031% (n = 340,000); active = rising FRET ratio curve, often small or poorly fitted; inconclusive = mostly compound fluorescence or quenching in the first reads; inactive = flat curves in all reads;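 note: potency is the fitted concentration of half-maximal effect; 0% = DMSO wells and 100% = buffer wells lacking importin beta; nearly all actives have a fitted effect of over 15% in size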
# Target sequence (Q14974 whole entry, looked up): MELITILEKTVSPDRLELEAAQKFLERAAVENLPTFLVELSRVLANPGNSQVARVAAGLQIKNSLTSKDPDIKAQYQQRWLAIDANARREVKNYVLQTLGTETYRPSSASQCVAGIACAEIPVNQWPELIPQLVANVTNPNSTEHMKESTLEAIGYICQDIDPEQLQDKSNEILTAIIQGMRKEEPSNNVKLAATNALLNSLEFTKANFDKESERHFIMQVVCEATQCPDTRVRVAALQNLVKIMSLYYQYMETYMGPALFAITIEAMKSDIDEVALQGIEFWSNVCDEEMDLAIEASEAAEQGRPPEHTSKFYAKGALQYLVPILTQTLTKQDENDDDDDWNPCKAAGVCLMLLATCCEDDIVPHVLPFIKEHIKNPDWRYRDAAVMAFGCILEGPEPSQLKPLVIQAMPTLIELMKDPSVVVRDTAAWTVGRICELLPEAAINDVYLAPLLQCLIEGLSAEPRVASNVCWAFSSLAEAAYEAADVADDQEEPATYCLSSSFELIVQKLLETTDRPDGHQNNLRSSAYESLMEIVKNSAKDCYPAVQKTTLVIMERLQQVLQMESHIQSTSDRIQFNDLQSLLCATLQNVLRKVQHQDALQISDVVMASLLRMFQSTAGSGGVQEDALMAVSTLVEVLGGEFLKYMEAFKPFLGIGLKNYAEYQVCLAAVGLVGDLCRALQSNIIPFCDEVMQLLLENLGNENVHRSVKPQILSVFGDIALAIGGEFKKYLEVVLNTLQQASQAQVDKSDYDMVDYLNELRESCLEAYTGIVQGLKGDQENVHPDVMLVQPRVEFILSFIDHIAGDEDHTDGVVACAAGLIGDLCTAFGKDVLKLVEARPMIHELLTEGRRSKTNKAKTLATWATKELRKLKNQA
#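 Inhibition scored from the CFP 486 nm/YFP 530 nm FRET ratio 45 min after adding 0.125 microM importin beta to 50 nM Rango biosensor preincubated 5 min with compound (room temperature, PBS with DTT, Tween-20, BSA). No-importin wells as positive control.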
# GLA inh pH 4.5: qHTS Assay for Inhibitors of Human alpha-Galactosidase at pH 4.5 | purified enzyme, 4-MU-alpha-Gal fluorescence, pH 4.5 | activity change, negative = inhibition, % at 105 µM | 230,000 tested, under 10 active | AID 1467, 2008; inconclusive = small, poorly fitted or top-dose-only inhibition, or a rising curve; inactive = flat fitted curve, though single readings scatter; no compound was filed as active;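 note: 0% = full activity with enzyme and -100% = basal without enzyme; dose as in the result columns while the protocol names 77 µM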
# miR-21 FLuc: qHTS Assay for Modulators of miRNAs and/orActivators of miR-21; HeLa miR-21 FLuc reporter, luciferase, 48 h; Potency, µM (doses to about 38.3 µM), without a hit: at the top dose reporter change, positive = more light; 340,000 tested, under 10 active; AID 2288, 2010; active = well fitted rising curve with a large enough effect; inconclusive = small, poorly fitted or top-dose-only effect; inactive = no such curve, though single readings can be large or run the other way;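 note: % of control where 0% means no effect; miR-21 action dims this reporter so a rising signal means less miR-21 action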
#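 HeLa miR-21-FLuc reporter line, endogenous miR-21; 2000 cells/well in DMEM/10% FBS; compound titration up to ~40uM final, 48 h, 37 degree Celsius; luciferase detection reagent, 15 min lysis, CCD luminescence.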
# Active calls of the source: *; ? = inconclusive; nt = not tested or not shown; & = joins results of further samples; [ ] = another dose, or the depositor's remark. Not all compounds are listed, so the mix of outcomes need not match the whole.
Rango release inh	SMILES	Rango-impB inh	GLA inh pH 4.5	miR-21 FLuc
?	O=C(Nc1nc2c(s1)CN(Cc1ccccc1)CC2)C1CCC1	?	-3.5	-45.3%
?	Nc1c(C(=O)NC2CCCC2)c2nc3ccccc3nc2n1N	?	0.6	-23.3%
-0.1%	COc1cc(C(=O)OCC(=O)Nc2cc(-c3cc(C)c(C)cc3C)nn2-c2ccccc2)cc(OC)c1OC	3.2%	1.3	-6.3%
-10.9%	COc1cccc(-c2ccc(-c3noc(-c4cccs4)n3)c(OC)n2)c1	4.8%	-1.7	-4.9%
7.1%	O=C(CN1C(=O)COc2ccc(S(=O)(=O)N3CCCC3)cc21)N1CCCC1	0.2%	-4.7	0.9%
-2.0%	CCC(C)N(C(=O)COC(=O)c1[nH]c(C)c(C(C)=O)c1C)C1CCS(=O)(=O)C1 (stereo not given)	-1.4%	-6.9	-20.6%
14.4%	CC(=O)N1c2c(cc(Br)cc2S(=O)(=O)N2CCOCC2)CC1C (stereo not given)	-1.2%	4.4	-1.5%
13.1%	O=C(CCn1c(=O)oc2cc(Cl)ccc21)Nc1ccc(N2CCOCC2)cc1	0.9%	nt	-1.7%
-23.2%	CC(C)c1ccc2[nH]c3c(c2c1)[C@@H]1CCN2C(=O)CCC[C@H](C3)[C@H]12	-0.7%	nt	-25.7%
-1.8%	O=C(OCc1nnc(-c2ccccc2)o1)C1CC(=O)N(c2ccccc2)C1 (stereo not given)	-4.2%	nt	-1.2%
8.4%	CSC1=NCCN1C(=O)Cc1ccc(F)cc1	-2.3%	0.9	-8.3%
-2.0%	N#Cc1ccc(-c2ccc(Cl)cc2)nc1Oc1ccc(F)cc1	-3.7%	1.5	-6.1%
-16.2%	O=C(COc1ccc(Nc2ccccc2)cc1)Nc1ccncc1	0.5%	nt	nt
-0.3%	CCCS(=O)(=O)N1CCCC(C(=O)c2ccccc2OC)C1 (stereo not given)	-1.0%	2.0	-8.3%
-9.3%	O=C1CCCC(=O)C1C(=O)C1CCN(S(=O)(=O)c2ccccc2)CC1	-1.9%	5.3	2.5%
18.8%	O=C(NC1=NCCS1)C1CC2CCC1C2 (stereo not given)	0.0%	0.7	-7.6%
-7.9%	CCOc1ncccc1C(=O)OCC(=O)c1ccc[nH]1	1.8%	7.7	-5.9%
-13.9%	COC(=O)Cn1nc(-c2ccccc2)c2cc(Cl)ccc21	1.0%	8.1	-1.8%
-0.7%	CCOC(=O)CN1C(=O)C2(OCCCO2)c2ccccc21	2.2%	-1.8	-2.8%
3.4%	CCN(CC)CCNC(=O)Cn1cnc2sc(C)c(S(=O)(=O)N3CCN(c4ncccn4)CC3)c2c1=O	3.5%	3.7[21.1 µM]	0.8%
13.6%	O=c1[nH]nc(-c2ccc([N+](=O)[O-])o2)c(=O)[nH]1	4.1%	nt	nt
?	N=c1c(C(=O)NCc2ccco2)cc2c(=O)n3ccccc3nc2n1Cc1ccc(Cl)cc1	?	-4.6	-12.8%
17.9%	COc1ccc(N2CCN(C(CNC(=O)C(=O)NCCCn3ccnc3)c3ccco3)CC2)cc1 (stereo not given)	-0.8%	6.5	5.8%
-0.9%	CCCN(CCC)CCCNC(=O)CS(=O)Cc1nc(-c2ccc(OC)c(OC)c2)oc1C (stereo not given)	-2.7%	5.5	-0.2%
?	C[n+]1ccc(/C=C/c2c[nH]c3ccc(F)cc23)cc1	?	nt	25.9%

# Fetched by structure from the entries so far (2):
Rango release inh	SMILES	Rango-impB inh	GLA inh pH 4.5	miR-21 FLuc
13.6%	O=c1[nH]nc(-c2ccc([N+](=O)[O-])o2)c(=O)[nH]1	4.1%	nt	nt
-10.9%	COc1cccc(-c2ccc(-c3noc(-c4cccs4)n3)c(OC)n2)c1	4.8%	-1.7	-4.9%

# Next part:
Rango release inh	SMILES	Rango-impB inh	GLA inh pH 4.5	miR-21 FLuc
-7.2%	COc1ccc2oc(C(=O)OCC(=O)N3CCCCC3C)c(C)c2c1 (stereo not given)	1.5%	nt	nt
-15.2%	CCCn1nnc(NC(=S)NC(=O)Cc2ccccc2)n1	0.3%	-3.3	-1.3%
4.1%	CN(C)S(=O)(=O)c1cccc(-c2nnc(SCc3cc(Cl)cc4c3OCOC4)n2N)c1	-0.6%	-27.8	-7.9%
-19.1%	CCCCCCCCCCCCCCCC(=O)OC(CC(=O)O)C[N+](C)(C)C (stereo not given)	4.6%	?	nt
-8.1%	CCSC(C)CC1C/C(=N/O)c2c(C)noc2C1 (stereo not given)	-1.7%	-0.6	-5.5%
-14.5%	CCC(CC)C(=O)c1c[nH]c(C(=O)NN)c1	-0.2%	2.1	19.1%
-15.5%	CN1C(=O)/C(=C/c2cc(C(C)(C)C)c(O)c(C(C)(C)C)c2)NC1=S	?	-23.4	-6.3%
7.3%	Cc1ccc(N(CCCCN2C(=O)c3ccccc3C2=O)C(=O)c2ccc(Cl)s2)cc1	-0.6%	-6.6	0.5%
0.0%	CC1Cc2ccccc2N1C1=CC(=O)CC(C)(C)C1 (stereo not given)	-3.9%	-1.5	3.7%
11.5%	CCOC(=O)c1cnn(-c2nc(SC)nc3sc4c(c23)CCCC4)c1N	1.1%	-2.1	3.2%
-5.2%	COc1cccc(S(=O)(=O)NCc2ccc(C(=O)Nc3ccc(Cl)cc3)cc2)c1	3.0%	-8.3	8.2%
-0.9%	Cc1cc(C)c2c(N)c(S(=O)(=O)Cc3ccccc3)sc2n1	-1.9%	6.8	-16.2%
2.0%	CN1CCN(CCNC(=O)Nc2ccccc2C(F)(F)F)CC1	-6.0%	1.2	-8.2%
?	Cn1nc(-c2ccccc2)c2nc3ccccc3nc21	?	-3.5	-0.6%
-6.1%	CCCCCCNS(=O)(=O)c1ccc(NC(=O)C2CCCO2)cc1 (stereo not given)	-2.7%	-6.1	-0.7%
-1.2%	CCC1CCC/C1=N\NC(=O)c1ccccc1Cl (stereo not given)	-2.8%	nt	nt
3.8%	O=C(N/N=C1\CCCc2ccccc21)c1ccccc1[N+](=O)[O-]	-1.0%	0.2	-6.2%
-6.7%	CCSc1n[nH]c(=S)s1	0.2%	11.4	1.1%
-5.5%	CCn1cnc2sc(C(=O)Oc3ccc(Br)cc3)c(C)c2c1=O	-0.5%	-0.6	-13.6%
-14.9%	O=C(NCc1ccccc1Cl)C1CCC(=O)N(CC2CCCCC2)C1 (stereo not given)	-1.8%	nt	-2.4%
-9.3%	CC1CCCC(NC(=O)COC(=O)/C=C/c2ccc3c(c2)OCO3)C1C (stereo not given)	-3.3%	8.2	-3.4%
5.5%	O=C(O)C1CCCCC1C(=O)Nc1ccc(S(=O)(=O)N2CCCCCC2)cc1 (stereo not given)	2.2%	nt	-3.0%
-5.7%	Cc1ccc(C)c(NS(=O)(=O)c2ccc(-c3coc(C)n3)cc2)c1	?	nt	5.7%
-3.9%	CC1CCCCN1Cc1c(O)ccc2c(=O)c(-c3ccc(Cl)cc3)coc12 (stereo not given)	0.9%	nt	-56.8%&-65.4%
-21.6%	O=C(CSc1nc2[nH]ncc2c(=O)[nH]1)NCCc1ccccc1	-0.2%	-3.4	0.4%

# Brought forward from above: 2 entries; new compounds follow.
Rango release inh	SMILES	Rango-impB inh	GLA inh pH 4.5	miR-21 FLuc
-3.9%	CC1CCCCN1Cc1c(O)ccc2c(=O)c(-c3ccc(Cl)cc3)coc12 (stereo not given)	0.9%	nt	-56.8%&-65.4%
-21.6%	O=C(CSc1nc2[nH]ncc2c(=O)[nH]1)NCCc1ccccc1	-0.2%	-3.4	0.4%
-16.5%	Cc1ccc(C(=O)OCC(=O)c2ccccc2)cc1	3.6%	nt	-33.7%
-23.7%	O=C1CC(c2ccccc2)CC(O)=C1C=Nc1ccccc1O (stereo not given)	-1.8%	2.3	1.5%
-10.9%	N#Cc1cccc(N=Cc2c(O)ccc3ccccc23)c1	-5.2%	-3.5	-5.9%
-0.5%	CCn1c(SCC(=O)c2ccc(C)cc2)nnc1-c1ccoc1C	?	10.3	-20.4%
?	O=C(NCc1ccco1)/C(=C/c1cccc(C(F)(F)F)c1)c1nc2ccccc2[nH]1	?	-8.5	?
-6.1%	NC(=O)CN1C(=O)C2C3c4ccccc4C(c4ccccc43)C2C1=O (stereo not given)	1.9%	8.0	-6.1%
-21.0%	CC1=CC(C)(C)Nc2ccc(OC(=O)C(Cc3ccccc3)N3C(=O)c4ccccc4C3=O)cc21 (stereo not given)	-1.7%	2.0	14.7%
-6.8%	O=C(Oc1c(CN2CCOCC2)cc(Cl)c2cccnc12)c1ccccc1Br	0.0%	-26.5	?
?	CCCn1c(CCC(=O)O)ccc1-c1ccc(OC)cc1	?	11.0	-2.9%
-5.7%	CC(C)=NNC1=NC(C)(C)Cc2ccccc21	-1.0%	-4.6	4.9%
-1.7%	COc1ccc(-c2oc3ncnc(NCCCO)c3c2-c2ccc(OC)cc2)cc1	-1.5%	nt	0.3%
-1.4%	CCOC(=O)C1=C(C)Nc2ccccc2S1	-2.2%	4.7	-10.2%
14.3%	Cc1ccc(C(=O)Nc2nnc(COc3ccccc3)s2)cc1	4.4%	4.5	1.2%
3.1%	Cc1cccc(C(=O)NC(=S)NNC(=O)Cc2ccccc2)c1	0.2%	-3.9	0.4%
-20.6%	CC(Oc1ccc(Br)cc1)C(=O)NC1CCCCCC1 (stereo not given)	2.5%	nt	nt
-8.7%	COc1ccc(N2CCN(S(=O)(=O)CCNC(=O)c3ccc4c(c3)OCO4)CC2)cc1	-2.8%	nt	nt
6.5%	O=C(N/N=C/c1ccc(O)c(O)c1)C1c2ccccc2Oc2ccccc21	0.2%	-2.9	-18.5%
-2.9%	CC(C)C(C(=O)Nc1ccc(S(N)(=O)=O)cc1)N1C(=O)c2ccccc2C1=O (stereo not given)	-2.9%	2.6	5.9%
-10.8%	Cc1ccc(C)c(N2C(=O)c3ccc(C(=O)OCC(=O)c4c(N)n(C)c(=O)n(C)c4=O)cc3C2=O)c1	-0.1%	-6.9	-7.9%
-6.4%	COc1cc(/C=C2\SC(c3ccc(C)cc3)=NC2=O)cc(OC)c1O	?	-2.1	-3.4%
-14.5%	COC(=O)c1cc(S(=O)(=O)Nc2ccc(C)cn2)c[nH]1	?	nt	-0.3%
0.0%	COC(=O)c1ccc(CSc2cc(C)c3cc(C)cc(C)c3n2)o1	-3.0%	5.0	-4.7%
12.3%	COc1cccc(CN2CCCC(C(=O)N3CCCCC3)C2)c1OC (stereo not given)	1.2%	-14.4	-1.8%
0.5%	O=C(Cn1c(=O)oc2ccccc21)NCCc1ccccc1	2.3%	nt	-11.0%
2.7%	O=S(=O)(NCC(c1ccc2c(c1)OCO2)N1CCOCC1)c1ccc(Br)cc1 (stereo not given)	-2.4%	nt	nt
3.1%	CC(=O)NC(CC(C)C)C(=O)O (stereo not given)	1.3%	nt	nt
4.6%	COc1ccc(S(=O)(=O)N2CCOCC2)cc1NC(=O)COc1ccc2c(C)cc(=O)oc2c1	2.2%	nt	nt
-13.9%	Cc1ccc(S(=O)(=O)N(C)CC(=O)Nc2ccncc2)cc1	-2.1%	-1.0	-4.3%
18.3%	Cc1ccc(-n2c(=O)[nH]c3cc(C(=O)NC4CCN(Cc5ccccc5)CC4)ccc3c2=O)cc1	-2.5%	0.1	-4.8%
-7.1%	COC(C(=O)Nc1ccnn1C1CCN(C(=O)c2ccc(C=O)cc2)CC1)c1ccccc1 (stereo not given)	3.2%	nt	-0.8%
20.2%	COc1ccc(CCN2CC(C(=O)NCC(=O)Nc3ccc(F)c(F)c3)CC2=O)cc1OC (stereo not given)	1.3%	nt	nt
-13.4%	COc1ccc(CN2CCN(CCCc3ccccc3)C(CCO)C2)c(O)c1 (stereo not given)	1.4%	nt	-0.1%
0.0%	O=C(CCN1C(=O)C2CC=CCC2C1=O)N1CCN(c2ccccn2)CC1 (stereo not given)	3.9%	-6.7	0.5%
-3.4%	CCc1ccc(Nc2n[n+](-c3ccccc3)c(-c3cc(OC)c(OC)cc3Br)s2)cc1	0.9%	nt	3.6%
5.9%	Cc1nc(-c2ccc(Cl)cc2)sc1C1(C)CC(c2cccc([N+](=O)[O-])c2)=NO1 (stereo not given)	-1.1%	-3.3	-14.9%
